# c-Myc SMM – binds human c-Myc on microarray; small molecule microarray, His-c-Myc binding, anti-His fluorescence; calls only; actives 1.5% (n = 17,000); AID 624141;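 active = spot fluorescence over background with P-value below 7% in all four replicate spots, showing protein binding; compounds were printed on slides so no solution concentration is given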;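 also: score is binary with 100 for all four spots passing and 0 otherwise; about 2 pmol printed per array spot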
# ID4 SMM – binders of human ID4 protein; AID 624137; P47928; actives 1.2% (n = 31,000); calls only; small molecule microarray, Flag-ID4 binding, fluorescence F/B;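 active = spot signal over background at p below 0.07 in all four prints; compounds were printed on slides so no solution concentration is given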;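 also: a binder raises fluorescence above local background on the spot; about 2 pmol printed per array spot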
# Target sequence (P47928 whole entry, looked up): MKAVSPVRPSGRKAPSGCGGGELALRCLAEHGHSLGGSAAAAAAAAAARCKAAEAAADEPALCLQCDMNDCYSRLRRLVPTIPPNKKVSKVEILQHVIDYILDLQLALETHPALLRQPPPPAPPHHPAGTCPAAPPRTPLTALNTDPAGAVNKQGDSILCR
# mut p53 SMM – binders of human mutant p53; actives 0.4% (n = 17,000); calls only; small molecule microarray binding, anti-GST fluorescence;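 active = compounds whose four printed spots each glow above background more than chance allows, each with a p-value under 7%; compounds were printed on slides so no solution concentration is given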;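 also: about 2 pmol printed per array spot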
# STAT3 SMM – binders of human STAT3 | calls only | Small molecule microarray, His-STAT3 binding, anti-His fluorescence | P40763 | actives 0.2% (n = 17,000) | AID 624138;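 active = compounds whose four printed spots each show fluorescence over background unusually high for their array block, chance value under 7%; compounds were printed on slides so no solution concentration is given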;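 also: about 2 pmol printed per array spot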
# Target sequence (P40763 whole entry, looked up): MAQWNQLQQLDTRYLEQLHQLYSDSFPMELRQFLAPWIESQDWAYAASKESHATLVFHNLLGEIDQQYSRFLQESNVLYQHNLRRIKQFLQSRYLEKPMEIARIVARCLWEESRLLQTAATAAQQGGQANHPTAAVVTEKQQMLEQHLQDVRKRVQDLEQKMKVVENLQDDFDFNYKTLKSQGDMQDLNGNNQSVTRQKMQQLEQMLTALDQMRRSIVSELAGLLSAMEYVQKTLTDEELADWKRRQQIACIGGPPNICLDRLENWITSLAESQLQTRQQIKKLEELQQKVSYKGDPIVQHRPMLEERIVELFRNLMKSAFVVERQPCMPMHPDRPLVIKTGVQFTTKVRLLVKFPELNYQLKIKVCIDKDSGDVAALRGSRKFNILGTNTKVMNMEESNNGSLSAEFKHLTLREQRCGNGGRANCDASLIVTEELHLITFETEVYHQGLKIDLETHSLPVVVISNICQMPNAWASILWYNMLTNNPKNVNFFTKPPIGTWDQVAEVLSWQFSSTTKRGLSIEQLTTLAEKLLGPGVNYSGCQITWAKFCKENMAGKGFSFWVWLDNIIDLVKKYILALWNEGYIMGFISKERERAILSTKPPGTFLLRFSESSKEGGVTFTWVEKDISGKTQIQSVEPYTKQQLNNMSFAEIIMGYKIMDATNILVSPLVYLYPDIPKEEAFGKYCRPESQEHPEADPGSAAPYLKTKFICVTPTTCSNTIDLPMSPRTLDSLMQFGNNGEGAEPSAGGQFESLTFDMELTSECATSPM
# Calls only; i = inactive; · = no result given; + = active, no number.
# Sequence of screens – c-Myc SMM, ID4 SMM, mut p53 SMM, STAT3 SMM
> COc1ccc(NC(=O)Nc2ccc3c(c2)C(=O)N([C@@H](C)CO)C[C@H](C)[C@@H](CN(C)S(=O)(=O)c2cccs2)O3)cc1
 : i, i, i, i
> C[C@H](CO)N1C[C@H](C)[C@@H](CN(C)Cc2ccc3c(c2)OCO3)Oc2c(NC(=O)C3CCOCC3)cccc2C1=O
 : i, i, i, i
> Cc1nn(CC(=O)Nc2cccnc2)c(C)c1[N+](=O)[O-]
 : i, i, i, i
> C[C@@H]1CN([C@@H](C)CO)C(=O)c2cccc(NC(=O)Nc3cccc4ccccc34)c2O[C@H]1CN(C)C(=O)Nc1ccc(F)cc1
 : i, i, i, i
> Cc1cccc(C)c1OCCCCNCCO
 : i, i, i, i
> CC(C)NC(=O)Nc1ccc2c(c1)CC(=O)N([C@@H](C)CO)C[C@@H](C)[C@H](CN(C)Cc1ccc(-c3ccccc3)cc1)O2
 : i, i, i, i
> C[C@@H]1CN([C@@H](C)CO)C(=O)c2cc(N(C)C)ccc2O[C@@H]1CN(C)Cc1ccncc1
 : i, i, i, i
> CC(=O)O[C@@H]1C[C@@H](C)[C@](O)(CCc2ccoc2)[C@]23CCC[C@](C)(C(=O)OC2)C13 (some centres not stated)
 : i, ·, i, i
> Cc1nccn1CC(O)COc1ccccc1Br (configuration not stated)
 : i, i, i, i
> Cc1cc(C)c(C)c(S(=O)(=O)NCc2ccc(C(=O)Nc3ccncc3)cc2)c1C
 : i, i, i, i
> Cc1noc(C)c1NC(=O)N(C)C[C@@H]1OCCCC[C@H](C)Oc2ccc(NS(=O)(=O)c3cccs3)cc2C(=O)N([C@@H](C)CO)C[C@H]1C
 : i, i, i, i
> CNC[C@@H]1Oc2ccc(NS(=O)(=O)c3ccccc3)cc2CC(=O)N([C@H](C)CO)C[C@@H]1C
 : i, i, i, i
> C[C@H](CO)N1C[C@H](C)[C@H](CN(C)C)Oc2c(NS(=O)(=O)c3ccc(Cl)cc3)cccc2C1=O
 : i, i, i, i
> CCCN(C)C[C@@H]1OCCCC[C@@H](C)Oc2ccc(NC(=O)Nc3cccc4ccccc34)cc2C(=O)N([C@H](C)CO)C[C@@H]1C
 : +, ·, i, i
> C[C@@H]1CN([C@@H](C)CO)C(=O)Cc2cc(NC(=O)CCC(F)(F)F)ccc2O[C@@H]1CN(C)Cc1ccc2c(c1)OCO2
 : i, i, i, i
> CCC(C)C1NC(=O)C(CC(C)C)NC(=O)C(CC(=O)O)NC(=O)C(C(C)C)NC(=O)C(CC(C)C)NC(=O)C(CC(C)C)NC(=O)C(CCC(N)=O)NC(=O)CC(CCCCCCCCCC(C)C)OC1=O (configuration not stated)
 : i, ·, i, i
> COc1ccc(NC(=O)Nc2ccc3c(c2)CC(=O)N([C@@H](C)CO)C[C@@H](C)[C@@H](CN(C)S(=O)(=O)c2ccc(Cl)cc2)O3)cc1
 : i, i, i, i
> C[C@@H]1CN([C@H](C)CO)C(=O)c2cc(NC(=O)C3CC3)ccc2O[C@@H]1CN(C)Cc1ccc2c(c1)OCO2
 : i, ·, i, i
> COCCOC(=O)N1C(=O)[C@@]2(c3cc(C#CCC(C(=O)OC)C(=O)OC)ccc31)[C@H](c1ccc(OCCO)cc1)N1[C@H](c3ccccc3)[C@H](c3ccccc3)OC(=O)[C@H]1[C@@H]2C(=O)NC[C@H](O)c1ccccc1
 : i, ·, i, i
> COc1ccc(S(=O)(=O)N(C)C[C@@H]2Oc3ccc(NS(C)(=O)=O)cc3CC(=O)N([C@H](C)CO)C[C@H]2C)cc1
 : i, i, i, i
> Cc1ccc2oc(-c3ccc(NC(=O)Cn4c(=O)oc5ccccc54)cc3)nc2c1
 : i, i, i, i
> COc1ccc(CN(C)C[C@@H]2Oc3c(NC(=O)c4cc(C)nn4C)cccc3C(=O)N([C@H](C)CO)C[C@@H]2C)cc1
 : i, i, i, i
> CC(C)NC(=O)Nc1ccc2c(c1)C(=O)N([C@H](C)CO)C[C@@H](C)[C@H](CN(C)S(=O)(=O)c1cccs1)OCCCC[C@H](C)O2
 : i, i, i, i
> C[C@H]1CN([C@@H](C)CO)C(=O)Cc2cc(NC(=O)CCC(F)(F)F)ccc2O[C@H]1CN(C)C(=O)Nc1cccc2ccccc12
 : i, i, i, i
> C[C@H]1CCCCO[C@@H](CN(C)C(=O)CCCN(C)C)[C@@H](C)CN([C@@H](C)CO)C(=O)c2cc(NC(=O)c3ccncc3)ccc2O1
 : i, i, i, i
> O=C(O)c1ccc(CSc2nnc(-c3cccnc3)n2-c2ccc(Br)cc2)cc1
 : i, i, i, i
> C[C@@H]1CN([C@@H](C)CO)C(=O)c2cc(NC(=O)C3CC3)ccc2O[C@H]1CN(C)Cc1ccc(C(=O)O)cc1
 : i, i, i, i
> C[C@@H]1CCCCO[C@@H](CN(C)S(=O)(=O)c2cccs2)[C@H](C)CN([C@@H](C)CO)C(=O)c2cc(NS(C)(=O)=O)ccc2O1
 : i, i, i, i
> C[C@H](CO)N1C[C@H](C)[C@H](CN(C)C(=O)Nc2ccccc2)Oc2ncc(-c3cc4ccccc4o3)cc2C1=O
 : i, i, i, i
> C[C@@H]1CN([C@@H](C)CO)C(=O)Cc2cc(NC(=O)Nc3ccccc3)ccc2O[C@@H]1CN(C)Cc1ccncc1
 : i, i, i, i
> COc1ccc(S(=O)(=O)Nc2ccc3c(c2)CC(=O)N([C@H](C)CO)C[C@@H](C)[C@H](CN(C)S(=O)(=O)c2ccc(OC)cc2)O3)cc1
 : i, i, i, i
> O=C(Nc1sc2c(c1C(=O)NCc1ccco1)CCCC2)c1ccc(Cl)cc1Cl
 : i, i, i, i
> Cc1noc(C)c1S(=O)(=O)Nc1ccc2c(c1)C(=O)N([C@@H](C)CO)C[C@@H](C)[C@@H](CN(C)C(=O)Nc1ccccc1)OCCCC[C@H](C)O2
 : i, i, i, i
> COC(=O)CN1C(=O)CN(c2nc(C)cc(C)n2)C1=O
 : i, i, i, i
> Cc1noc(C)c1NC(=O)Nc1ccc2c(c1)C(=O)N([C@@H](C)CO)C[C@H](C)[C@H](CN(C)C(=O)CCCN(C)C)OCCCC[C@H](C)O2
 : i, i, i, i
> CCOC(=O)c1c(NC(=S)NC(C)C2CCCO2)sc2c1CCCC2 (configuration not stated)
 : i, i, i, i
> C[C@@H]1CCCCO[C@@H](CN(C)C(=O)Nc2ccc(C(F)(F)F)cc2)[C@H](C)CN([C@@H](C)CO)C(=O)c2cc(NS(C)(=O)=O)ccc2O1
 : +, i, i, i
> C[C@H](CO)N1C[C@H](C)[C@@H](CN(C)Cc2ccccc2)OCc2cn(nn2)CCCC1=O
 : i, i, i, i
> CCOC(=O)CNC(=O)c1cnn2cccnc12
 : i, i, i, i
> CCN(CC)CCSc1nnc2c3cc(C)ccc3n(C)c2n1
 : i, i, i, i

# Five entries drawn at random from the list so far:
# Sequence of screens – c-Myc SMM, ID4 SMM, mut p53 SMM, STAT3 SMM
> C[C@@H]1CCCCO[C@@H](CN(C)C(=O)Nc2ccc(C(F)(F)F)cc2)[C@H](C)CN([C@@H](C)CO)C(=O)c2cc(NS(C)(=O)=O)ccc2O1
 : +, i, i, i
> COC(=O)CN1C(=O)CN(c2nc(C)cc(C)n2)C1=O
 : i, i, i, i
> CCN(CC)CCSc1nnc2c3cc(C)ccc3n(C)c2n1
 : i, i, i, i
> Cc1noc(C)c1S(=O)(=O)Nc1ccc2c(c1)C(=O)N([C@@H](C)CO)C[C@@H](C)[C@@H](CN(C)C(=O)Nc1ccccc1)OCCCC[C@H](C)O2
 : i, i, i, i
> CCOC(=O)c1c(NC(=S)NC(C)C2CCCO2)sc2c1CCCC2 (configuration not stated)
 : i, i, i, i

# The listing continues.
# Sequence of screens – c-Myc SMM, ID4 SMM, mut p53 SMM, STAT3 SMM
> C[C@@H]1CN([C@@H](C)CO)C(=O)Cc2cc(NC(=O)NC3CCCCC3)ccc2O[C@@H]1CN(C)Cc1ccccc1
 : i, i, i, i
> COC(=O)C(CCCN=C(N)N)NC(=O)CCCc1c(-c2ccccc2)[nH]c2c(F)cc(F)cc12 (configuration not stated)
 : i, i, i, i
> C=C1C(=O)O[C@@H]2C=C(C)[C@@H]3CC[C@@](C)(O)[C@@H]3C[C@H]12
 : i, i, i, i
> COc1ccc(NC(=O)Nc2ccc3c(c2)C(=O)N([C@@H](C)CO)C[C@H](C)[C@@H](CN(C)S(=O)(=O)c2cn(C)cn2)O3)cc1
 : i, i, i, i
> C[C@H](CO)N1C[C@H](C)[C@@H](CN(C)C)Oc2ccc(NC(=O)c3ccncc3)cc2C1=O
 : i, i, i, i
> C[C@H]1CN([C@@H](C)CO)C(=O)Cc2cc(NC(=O)Nc3ccc4c(c3)OCO4)ccc2O[C@H]1CN(C)C(=O)NC1CCCCC1
 : i, i, i, i
> CC1(C)CC[C@@]2(C(=O)O[C@@H]3O[C@H](CO)[C@@H](O)[C@H](O)[C@H]3O)C(C1)C1=CCC3[C@@]4(C)CC[C@@H](O[C@@H]5O[C@H](C(=O)O)[C@@H](O[C@@H]6OC[C@@H](O)[C@H](O)[C@H]6O)[C@H](O)[C@H]5O)C(C)(C)C4CC[C@@]3(C)[C@]1(C)C[C@H]2O (some centres not stated)
 : i, i, i, i
> C[C@@H]1CN([C@H](C)CO)C(=O)c2cc(NS(C)(=O)=O)ccc2O[C@H]1CN(C)C(=O)NC1CCCCC1
 : i, i, i, i
> COc1c(O)cc2c(c1O)C(=O)OC(C)C2O (configuration not stated)
 : i, i, i, i
> Cc1noc(C)c1NC(=O)Nc1ccc2c(c1)CC(=O)N([C@H](C)CO)C[C@H](C)[C@H](CN(C)C(=O)Nc1cccc3ccccc13)O2
 : i, i, i, i
> C[C@@H]1CN([C@H](C)CO)C(=O)c2cccc(NC(=O)C3CCOCC3)c2O[C@H]1CN(C)S(=O)(=O)c1cn(C)cn1
 : i, i, i, i
> C[C@H]1CN([C@@H](C)CO)C(=O)c2cc(NC(=O)Nc3ccc4c(c3)OCO4)ccc2O[C@H]1CN(C)S(=O)(=O)c1cccs1
 : i, i, i, i
> C[C@@H]1CN([C@@H](C)CO)C(=O)c2cc(NC(=O)Nc3ccc4c(c3)OCO4)ccc2O[C@@H]1CN(C)C(=O)Nc1ccccc1
 : i, ·, i, i
> C[C@@H]1CCCCO[C@@H](CN(C)C(=O)c2ccncc2)[C@@H](C)CN([C@@H](C)CO)C(=O)c2cc(NS(=O)(=O)c3ccccc3)ccc2O1
 : i, i, i, i
> C[C@@H]1CN([C@@H](C)CO)C(=O)c2cc(NC(=O)c3ccncc3)ccc2O[C@@H](C)CCCCO[C@@H]1CN(C)C
 : i, i, i, i
> CC(C)(C)NC[C@H](O)COc1cccc2c1CCCC2=O
 : i, i, i, i
> C[C@@H]1CN([C@H](C)CO)C(=O)c2cc(NC(=O)Nc3ccccc3)ccc2O[C@@H](C)CCCCO[C@@H]1CN(C)Cc1ccncc1
 : i, i, i, i
> C[C@H](CO)N1C[C@H](C)[C@@H](CN(C)S(=O)(=O)c2cn(C)cn2)Oc2ccc(NS(=O)(=O)c3cn(C)cn3)cc2C1=O
 : i, i, i, i
> CCCN(C)C[C@@H]1OCCCC[C@H](C)Oc2ccc(NC(=O)C3CCCCC3)cc2C(=O)N([C@H](C)CO)C[C@@H]1C
 : i, ·, i, i
> COCCOC(=O)N1C(=O)[C@@]2(c3ccccc31)[C@H](C(=O)N1CCN(c3ncccn3)CC1)[C@H]1C(=O)O[C@H](c3ccccc3)[C@H](c3ccccc3)N1[C@@H]2c1ccc(OCCO)cc1
 : i, i, i, i
> C[C@H](CO)N1C[C@H](C)[C@H](CN(C)CC2CC2)Oc2ccc(NS(=O)(=O)c3cn(C)cn3)cc2CC1=O
 : i, i, i, i
> COC(=O)[C@H]1CC[C@H](OC(C)=O)[C@]2(C)CC[C@@H](C(C)C)[C@@H](OC(=O)/C=C/c3ccccc3)C12 (some centres not stated)
 : +, i, i, i
> C[C@H]1CN([C@@H](C)CO)C(=O)Cc2cc(NC(=O)CCC(F)(F)F)ccc2O[C@@H]1CN(C)C
 : i, i, i, i
> C[C@H]1CCCCO[C@@H](CN(C)C(=O)CCCN(C)C)[C@@H](C)CN([C@@H](C)CO)C(=O)c2cc(NS(=O)(=O)c3ccccc3)ccc2O1
 : i, i, i, i
> C[C@@H]1CN([C@@H](C)CO)C(=O)CCCn2cc(nn2)CO[C@H]1CN(C)Cc1ccc(C(F)(F)F)cc1
 : i, i, i, i
> C[C@H](CO)N1C[C@H](C)[C@@H](CN(C)C(=O)NC2CCCCC2)Oc2ccc(NC(=O)Nc3cccc4ccccc34)cc2CC1=O
 : i, i, i, i
> C[C@@H]1CN([C@@H](C)CO)C(=O)c2cc(NC(=O)Nc3cccc4ccccc34)ccc2O[C@@H](C)CCCCO[C@H]1CN(C)Cc1ccc2c(c1)OCO2
 : i, ·, i, i
> C[C@@H]1CN([C@@H](C)CO)C(=O)c2cccc(NC(=O)C3CCOCC3)c2O[C@@H]1CN(C)Cc1ccc(C(=O)O)cc1
 : i, i, i, i
> CSc1nc(C)cc(OCC(=O)Nc2ccc(Cl)cc2)n1
 : i, i, i, i
> NC(=O)c1c(NC(=O)C2CC(=O)N(c3ccccc3)C2)sc2c1CCCC2 (configuration not stated)
 : i, +, i, i
> O=S(=O)(NC1CCN(Cc2cccc(OCCO)c2)CC1)c1cc(C(F)(F)F)ccc1Cl
 : i, i, i, i
> CCOC(=O)c1c(NC(=O)COc2ccc(F)cc2)sc2c1CCCC2
 : i, i, i, i
> Cc1noc(C)c1S(=O)(=O)Nc1cccc2c1O[C@@H](CN(C)C(=O)NC1CCCCC1)[C@@H](C)CN([C@@H](C)CO)C2=O
 : i, i, i, i

# Compound activity as filed in PubChem BioAssay.
